Screening data from PubChem.
A1 inh – A1 inhibition. caspase activation, % (test concentration not listed). MEF A1-2A-BIM cells, caspase-Glo luminescence, 3 h; percent of clofoctol signal, DMSO as zero. hit rate 0.51% among 21,000;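 active means most replicate scores above 10, or exactly half above 10 with mean activity above 10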;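 further: effector caspase 3 and 7 activity cleaving a DEVD luciferin substrate; 50 nL library stock added to about 30 µL; numbers are from one replicate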
BJeLR viab HTS – compounds reducing viability of BJeLR cells. BJeLR fibroblasts viability, CellTiterGlo ATP luminescence, 48 h; HRASV12, hTERT and SV40 LT/ST transformed. viability loss activity score, % (no concentration beside the values). hit rate 0.64% among 30,000. AID 2275; in the data active means viability loss activity score above about 50%; about a fifth of its hits are not listed in these tables;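 further: higher score means fewer live cells and less ATP luminescence; stock transfer was 50 or 100 nL into about 30 µL; 0% = vehicle wells and 100% = a reference killing control; one replicate is shown; the record names a cut of 85%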
Numbers without * were called inactive; . = no result given; & = joins results of further samples.

Order of values – A1 inh | BJeLR viab HTS
C[C@H](CO)N1C[C@H](C)[C@@H](CN(C)C(=O)Nc2ccccc2)Oc2c(NC(=O)c3cnccn3)cccc2C1=O
 : . | -0.4
N#Cc1c(-c2ccc(Cl)cc2)csc1S(=O)C1CCCCC1 (stereo unspecified)
 : 0.6 | -7.4
C=CCSc1c2c(c(C#N)c3nc4ccccc4n13)CCC2
 : 0.9 | 3.0
C[C@H](CO)N1C[C@H](C)[C@@H](CN(C)S(=O)(=O)c2ccccc2)Oc2ccc(NS(C)(=O)=O)cc2C1=O
 : -0.7 | 0.7
NC(=O)c1cccn1Cc1ccc(Cl)cc1
 : -0.6 | -0.9
COc1ccc(-n2c(-c3ccc(Cl)cc3)n[nH]c2=S)cc1
 : -0.2 | -7.7
Cc1ccccc1NC(=O)NCCc1ccccc1
 : 0.9 | 3.5
C[C@@H]1CN([C@H](C)CO)C(=O)c2cc(NC(=O)Nc3ccccc3)ccc2O[C@@H]1CN(C)Cc1ccc(C(=O)O)cc1
 : 0.3 | 0.6
Cc1ccc(S(=O)(=O)Nc2ccc3c(c2)C(=O)N([C@@H](C)CO)C[C@@H](C)[C@H](CN(C)S(=O)(=O)c2ccc(Cl)cc2)O3)cc1
 : -0.9 | -4.4
CC1(C)C2CCC1(C)C(NC(=O)c1cccc(C(F)(F)F)c1)C2 (stereo unspecified)
 : -0.5 | 1.9
Cc1ccc(Oc2ncnc3sccc23)cc1
 : -1.7 | -0.1
CC(CN1CCN(Cc2ccccc2)CC1)N(C(=O)c1ccc(C(C)(C)C)cc1)c1ccccn1 (stereo unspecified)
 : -0.9 | 3.8
CCC(Sc1nnnn1-c1ccccc1)C(=O)Nc1sc2c(c1C#N)CCCC2 (stereo unspecified)
 : -0.5 | 11.8
Cc1cc2c(C(C)C)c(O)c(O)c(C=O)c2c(O)c1-c1c(C)cc2c(C(C)C)c(O)c(O)c(C=O)c2c1O
 : 0.2&0.3 | -7.2&-5.0
C[C@H]1CN([C@@H](C)CO)C(=O)c2cccc(NC(=O)c3cnccn3)c2O[C@H]1CN(C)C(=O)Nc1ccc(C(F)(F)F)cc1
 : . | -0.3
S=C(c1cn(CCOc2ccccc2)c2ccccc12)N1CCCC1
 : -0.7 | 6.7
C[C@H]1CN([C@@H](C)CO)C(=O)c2cccc(NC(=O)Nc3ccc(F)cc3)c2O[C@H]1CN(C)S(=O)(=O)c1ccccc1
 : . | -1.0
CC(C)(O)CCC(=O)C(C)(O)C1C(O)CC2(C)C3CC=C4C(CC(O)C(OC5OC(CO)C(O)C(O)C5O)C4(C)C)C3(C)C(=O)CC12C (stereo unspecified)
 : -0.4 | -5.5
COC(=O)c1ccccc1O[C@@H]1O[C@H](CO[C@@H]2OC[C@@H](O)[C@H](O)[C@H]2O)[C@@H](O)[C@H](O)[C@H]1O
 : -0.5 | 7.9
CNC(=O)c1ccc2c(c1)NC(=O)c1ccccc1S2
 : 1.2 | 4.8
c1ccc(-c2ncc(CN3CCN(c4ccccn4)CC3)[nH]2)cc1
 : -2.6 | 2.6
CC1(C)C2CC(=O)O[C@@]3(C)C4=CC(=O)O[C@@H](c5ccoc5)[C@]4(C)CCC3[C@@]2(C)C=C[C@H]1O (stereo partly specified)
 : -0.3 | -1.2
C[C@@H]1CN([C@@H](C)CO)C(=O)c2cc(NS(=O)(=O)c3ccc(Cl)cc3)ccc2O[C@H]1CN(C)Cc1ccc(Oc2ccccc2)cc1
 : 0.5 | -3.9
Cc1oc(C(C)(C)C)cc1C(=O)N1CCN(C(c2ccccc2)c2ccccc2)CC1
 : . | 1.8
CCCCc1[nH]nc2c1C1(CCCCC1)C(C#N)=C(N)O2
 : 0.8 | -1.0
CCOC(=O)C1C=C2C(=O)N3C=CC=CC3N=C2N(C(C)C)C1=NC(C)=O (stereo unspecified)
 : . | -1.6
CC(=O)N/C(=C/c1ccccc1)C(=O)Nc1ccc(I)cc1
 : 0.8 | 3.8
C[C@H]1CN([C@@H](C)CO)C(=O)c2cc(NC(=O)NC3CCCCC3)ccc2O[C@@H]1CN(C)Cc1ccc(-c2ccccc2)cc1
 : -1.6 | -0.3
COc1ccc(CN(C)C[C@H]2Oc3ccc(NC(=O)Nc4ccc(C(F)(F)F)cc4)cc3C(=O)N([C@@H](C)CO)C[C@H]2C)cc1
 : -0.4 | -4.0
C[C@@H]1CN([C@H](C)CO)C(=O)c2cc(NC(=O)Nc3cccc4ccccc34)ccc2O[C@H]1CN(C)Cc1ccc(-c2ccccc2)cc1
 : -0.4 | -4.0
S=C(Nc1ccccc1)N1CCN(c2ccc3nnc(-c4ccccc4)n3n2)CC1
 : -0.6 | 4.4
O=C(CCC(=O)N1CCOCC1)Nc1c(F)c(F)nc(N2CCOCC2)c1F
 : 0.5 | 3.1
C[C@@H]1CN([C@H](C)CO)C(=O)c2cc(NS(=O)(=O)c3cccs3)ccc2O[C@@H]1CN(C)Cc1ccc(C(=O)O)cc1
 : -0.7 | 1.7
CCCCCN(CCCCC)C(=O)C(CCC(=O)O)NC(=O)c1ccc(Cl)c(Cl)c1 (stereo unspecified)
 : -0.3 | -12.1
C[C@H](CO)N1C[C@H](C)[C@H](CN(C)Cc2ccc(C(=O)O)cc2)Oc2ccc(NC(=O)NC3CCCCC3)cc2C1=O
 : -0.8 | -0.3
CCS(=O)(=O)c1nc(S(=O)(=O)c2ccc(Cl)cc2)c(NCCN2CCOCC2)s1
 : 0.2 | -0.5
C[C@@H]1CN([C@H](C)CO)C(=O)c2cc(NS(=O)(=O)c3cccs3)ccc2O[C@@H]1CN(C)C(=O)Nc1ccc(C(F)(F)F)cc1
 : -0.3 | -0.4
CCN(C(=O)CN1C(=O)N(c2ccc(C)c(Cl)c2)S(=O)(=O)c2ccccc21)c1ccccc1
 : 1.1 | -10.3
Cc1ccc(N(CC(=O)c2ccccc2)CC(=O)c2ccc(Cl)cc2)cc1
 : -3.2 | -2.3
COc1ccc(CCn2c(C)cc(O)cc2=O)cc1OC
 : -0.7 | 1.5
CC(C)CN=CC1=C(O)CC(C)(C)CC1=O
 : -0.1 | 1.7
C=C(C)C(O)Cc1cc(CCc2cc(O)cc(O)c2)cc(O)c1OC (stereo unspecified)
 : -0.1 | -0.7
N#Cc1c(N)[nH]c(=S)c(C(N)=O)c1-c1cccc(Br)c1
 : -0.1 | 8.3
CNC(=O)N(Cc1cccnc1)Cc1ccccc1Cl
 : 0.3 | -2.0
C[C@@H]1CN([C@@H](C)CO)C(=O)c2cccc(NS(=O)(=O)c3ccc(F)cc3)c2O[C@@H]1CN(C)Cc1ccc(Cl)c(Cl)c1
 : . | 0.4

Seven records picked at random from the list so far:
Order of values – A1 inh | BJeLR viab HTS
C[C@@H]1CN([C@@H](C)CO)C(=O)c2cccc(NS(=O)(=O)c3ccc(F)cc3)c2O[C@@H]1CN(C)Cc1ccc(Cl)c(Cl)c1
 : . | 0.4
COc1ccc(CN(C)C[C@H]2Oc3ccc(NC(=O)Nc4ccc(C(F)(F)F)cc4)cc3C(=O)N([C@@H](C)CO)C[C@H]2C)cc1
 : -0.4 | -4.0
N#Cc1c(N)[nH]c(=S)c(C(N)=O)c1-c1cccc(Br)c1
 : -0.1 | 8.3
CCN(C(=O)CN1C(=O)N(c2ccc(C)c(Cl)c2)S(=O)(=O)c2ccccc21)c1ccccc1
 : 1.1 | -10.3
C[C@H](CO)N1C[C@H](C)[C@@H](CN(C)C(=O)Nc2ccccc2)Oc2c(NC(=O)c3cnccn3)cccc2C1=O
 : . | -0.4
C[C@@H]1CN([C@H](C)CO)C(=O)c2cc(NS(=O)(=O)c3cccs3)ccc2O[C@@H]1CN(C)Cc1ccc(C(=O)O)cc1
 : -0.7 | 1.7
Cc1ccc(Oc2ncnc3sccc23)cc1
 : -1.7 | -0.1

New compounds follow
Order of values – A1 inh | BJeLR viab HTS
CC(C)OC(=O)c1cccc(C(=O)OC(C)C)n1
 : 1.1 | 0.3
CC(C)(C)C(=O)Nc1ccccc1C(=O)N1CCN(Cc2ccccc2)CC1
 : -0.6 | -2.2
NS(=O)(=O)c1ccc(CCNC2=CC(=O)OC23CCCCC3)cc1
 : . | 1.6
CC(C)NC(=O)Nc1ccc2c(c1)C(=O)N([C@@H](C)CO)C[C@@H](C)[C@H](CN(C)Cc1ccc3c(c1)OCO3)O2
 : 0.6 | 11.9
O=C(O)c1cc(N=Cc2ccccc2O)ccc1O
 : -2.1 | 0.0
C[C@H]1CN([C@@H](C)CO)C(=O)c2cc(NC(=O)Nc3cccc4ccccc34)ccc2O[C@@H]1CN(C)C(=O)Nc1ccc(F)cc1
 : -0.2 | -4.5
C=C(C)C(=O)O[C@@H]1C2=C(C)C(=O)OC2(O)CC23OC2CC[C@H](C)[C@@]13C (stereo partly specified)
 : -0.8 | -2.3
Cc1noc(C)c1S(=O)(=O)Nc1ccc2c(c1)C(=O)N([C@@H](C)CO)C[C@H](C)[C@@H](CN(C)Cc1ccncc1)O2
 : 0.0 | -0.4
CSc1nc(-c2ccccc2)cc(-c2cccs2)c1C#N
 : . | 1.4
C[C@@H]1CN([C@H](C)CO)C(=O)c2cc(NC(=O)CCC(F)(F)F)ccc2O[C@H]1CN(C)Cc1ccncc1
 : 0.4 | -1.3
COc1ccc(S(=O)(=O)Nc2cccc3c2O[C@@H](CN(C)CC2CC2)[C@@H](C)CN([C@@H](C)CO)C3=O)cc1
 : . | -2.7
CN(C)/C=C/C(=O)c1sc(SCc2ccc(Cl)cc2)c2c1CC(C)(C)CC2=O
 : -0.6 | 1.9
C[C@H]1CN([C@@H](C)CO)C(=O)c2cc(NC(=O)CCCN(C)C)ccc2O[C@@H]1CN(C)Cc1ccc(Oc2ccccc2)cc1
 : 0.7 | 0.2
Cc1cc(C)c(C)c(C(=O)COC(=O)c2cc(=O)[nH]c3ccccc23)c1C
 : 0.7 | 3.4
Cc1cc(=O)oc2c(O)c(O)ccc12
 : 0.2 | -0.5
C[C@@H]1CN([C@H](C)CO)C(=O)c2cccc(NC(=O)C3CCCCC3)c2O[C@@H]1CN(C)C(=O)Nc1ccc(F)cc1
 : . | -4.2
COc1cc(/C=c2\sc3nc4cc(C)c(C)cc4n3c2=O)c(Br)cc1OCC(=O)O
 : 0.2 | 1.2
Cc1ccc(S(=O)(=O)Nc2ccc3c(c2)C(=O)N([C@@H](C)CO)C[C@H](C)[C@H](CN(C)C(=O)Nc2ccc4c(c2)OCO4)O3)cc1
 : -0.5 | 2.7
C[C@@H]1CN([C@@H](C)CO)C(=O)c2cc(NC(=O)CCCCCC(=O)Nc3ccccc3N)ccc2O[C@H]1CN(C)Cc1ccc(C(F)(F)F)cc1
 : . | -8.0
O=C(NCCc1ccccc1)Nc1ccc2c(c1)N(Cc1ccccc1)C(=O)c1ccccc1S2
 : 0.5 | -2.3
CC(C)=CCCC1(C)C=Cc2c(ccc3c2[nH]c2cc(O)c(C)cc23)O1 (stereo unspecified)
 : -0.4 | -0.2
C[C@H](CO)N1C[C@H](C)[C@H](CN(C)CC2CC2)Oc2ccc(NC(=O)Cc3cn(C)c4ccccc34)cc2C1=O
 : 0.7 | 1.8
CC(C)CCNC(=O)c1cc2c(=O)n3ccccc3nc2s1
 : . | 9.2
COc1cccc(CNC(=O)CCn2nc(-c3ccccc3)ccc2=O)c1
 : 0.0 | 1.2
C[C@H]1CN([C@@H](C)CO)C(=O)c2cccc(NC(=O)c3ccncc3)c2O[C@H]1CN(C)CC1CC1
 : . | 1.6
COc1ccc(S(=O)(=O)N(C)C[C@H]2Oc3c(NS(=O)(=O)c4c(C)noc4C)cccc3C(=O)N([C@@H](C)CO)C[C@H]2C)cc1
 : . | -3.5
C[C@@H]1CN([C@@H](C)CO)C(=O)c2cccc(NC(=O)c3nc4ccccc4s3)c2O[C@@H]1CN(C)C(=O)Nc1ccc2c(c1)OCO2
 : . | -2.3
CCOC(=O)c1cnc2cc(C(F)(F)F)ccc2c1N1CCCCCC1
 : 0.0 | -0.1
COc1ccc(S(=O)(=O)Nc2cccc3c2O[C@H](CN(C)C(=O)Nc2ccc(C(F)(F)F)cc2)[C@H](C)CN([C@H](C)CO)C3=O)cc1
 : . | 9.4
CC(C)NC(=O)N(C)C[C@@H]1Oc2c(NS(=O)(=O)c3ccc(Cl)cc3)cccc2C(=O)N([C@@H](C)CO)C[C@H]1C
 : . | 5.1
CC(=O)N1N=C(c2c(-c3ccccc3)c3cc(Cl)ccc3[nH]c2=O)CC1c1ccco1 (stereo unspecified)
 : -1.1 | -3.2
CCCS(=O)(=O)N1CCN(C2CCN(C(=O)OCC)CC2)CC1
 : 0.5 | 8.8
CC(C)(C)c1ccc(-c2cc3ccccn3c2)cc1
 : 0.3 | 0.6
Cc1noc(C)c1S(=O)(=O)Nc1ccc2c(c1)C(=O)N([C@H](C)CO)C[C@H](C)[C@H](CN(C)Cc1ccc(C(=O)Nc3ccccc3N)cc1)O2
 : . | 16.1
Cc1ccc(-n2ncc3c(=O)n(CC(=O)NCc4ccccc4Cl)cnc32)cc1C
 : 1.3 | -1.6
Cc1ccc(OCC(=O)NCc2ccccc2)cc1
 : . | 2.7
Cc1cc(N2CCOCC2)c2c(N)cc(C)c(C)c2n1
 : . | 1.0
C[C@@H]1CN([C@@H](C)CO)C(=O)c2cccc(NC(=O)C3CC3)c2O[C@@H]1CN(C)Cc1ccc(Oc2ccccc2)cc1
 : . | 0.4
Cc1noc(C)c1NC(=O)N(C)C[C@H]1Oc2c(NC(=O)c3ccc(-c4nccs4)cc3)cccc2C(=O)N([C@@H](C)CO)C[C@@H]1C
 : . | 0.9
C[C@@H]1CN([C@@H](C)CO)C(=O)c2cc(NC(=O)Cc3ccccc3)ccc2O[C@H]1CN(C)Cc1ccc(Oc2ccccc2)cc1
 : 0.0 | -0.1
C[C@H](CO)N1C[C@H](C)[C@H](CN(C)Cc2ccc(C(F)(F)F)cc2)Oc2c(NC(=O)Nc3ccc(C(F)(F)F)cc3)cccc2C1=O
 : . | 4.0
C=C[C@@]1(C)CCC2=C([C@H]1OC(C)=O)[C@H](OC(C)=O)CC1[C@](C)(C(=O)OC)CC[C@H](OC(C)=O)[C@]21C (stereo partly specified)
 : -0.1 | -1.8

Not all compounds are listed (hit frequency here may not be typical).
